High-throughput results (PubChem)
A1 inh = inducers of caspase activity in MEF A1-2A-BIM cells, primary screen, A1 inhibitor project, cell-based, CaspaseGlo luminescence | caspase-Glo luminescence, 3 h; percent of clofoctol signal, DMSO as zero | caspase activation, % (no concentration beside the values) | actives 0.51% (n = 21,000) | AID 2241, 2010;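 active = most replicate scores above 10, or exactly half above 10 with mean activity above 10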;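 also: effector caspase 3 and 7 activity cleaving a DEVD luciferin substrate; 50 nL library stock added to about 30 µL; numbers are from one replicate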
BJeLR viability = BJeLR cell viability loss, primary screen, luminescence, CellTiterGlo ATP; BJeLR fibroblasts viability, 48 h; HRASV12, hTERT and SV40 LT/ST transformed; viability loss activity score, % (no concentration beside the values); actives 0.64% (n = 30,000); AID 2275, 2010; in the data active = viability loss activity score above about 50%; about a fifth of its hits are not listed in these tables;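 also: higher score means fewer live cells and less ATP luminescence; stock transfer was 50 or 100 nL into about 30 µL; 0% = vehicle wells and 100% = a reference killing control; one replicate is shown; the record names a cut of 85%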
The depositor's hits bear a star.

What do the screens show for `COC(=O)c1ccc(CS(=O)(=O)c2ccc(OC)cc2)o1`?
A1 inh: 0.4; BJeLR viability: -5.8

What do the screens show for `O=C(Nn1cnc2ccccc2c1=O)c1ccccc1`?
A1 inh: -0.4; BJeLR viability: 3.7

Results for CC(C)(C)c1cc(CN2CCN(CCC#N)CC2)cc(C(C)(C)C)c1O ?
A1 inh: -0.7; BJeLR viability: -2.4

Results for Cc1nc2ccccn2c1-c1ccnc(SCC(=O)N(c2ccccc2)C2CCCCC2)n1 ?
A1 inh: -0.1; BJeLR viability: -2.0

Results for CCOC(=O)N1CCN(C(=O)CSc2ncnc3c2nnn3Cc2ccc(F)cc2)CC1 ?
A1 inh: -2.3; BJeLR viability: -1.4

How did COc1ccc2c(c1)c(=O)oc1c(C)c(OC(C(=O)O)c3ccccc3)ccc12 (stereo not given) do in these assays?
A1 inh: -1.6; BJeLR viability: 8.7

What do the screens show for `CC(C)c1cc2c(cc1O)[C@@]1(C(=O)O)CCCC(C)(C)C1CC2` (stereo not given in full)?
A1 inh: -0.2; BJeLR viability: -2.6

What do the screens show for `COc1ccc(NC(=O)N(C)C[C@@H]2Oc3ccc(NS(=O)(=O)c4ccc(C)cc4)cc3C(=O)N([C@@H](C)CO)C[C@@H]2C)cc1`?
A1 inh: -0.5; BJeLR viability: -3.8

Results for Cc1ccc(S(=O)(=O)Nc2ccc3c(c2)C(=O)N([C@@H](C)CO)C[C@@H](C)[C@H](CN(C)S(C)(=O)=O)O3)cc1 ?
A1 inh: 0.7; BJeLR viability: -2.4

How did O=C(NCCN1C(=O)C2C3C=CC(C3)C2C1=O)NCc1ccccc1 (stereo not given) do in these assays?
A1 inh: 0.5; BJeLR viability: -0.4

What do the screens show for `COC(=O)c1cc2c(s1)CS(=O)C2` (stereo not given)?
A1 inh: 1.1; BJeLR viability: 7.4

Results for Cc1cc(C)c(C#N)c(SCSCc2ccccc2)n1 ?
A1 inh: -0.5; BJeLR viability: 0.3

What do the screens show for `CC(C)NC(=O)N(C)C[C@H]1Oc2ccc(NC(=O)Cc3ccccc3)cc2C(=O)N([C@@H](C)CO)C[C@H]1C`?
A1 inh: 0.1; BJeLR viability: 0.1

How did C[C@@H]1CN([C@@H](C)CO)C(=O)c2cccc(NC(=O)NC3CCCCC3)c2O[C@@H]1CN(C)Cc1ccccc1 do in these assays?
BJeLR viability: 0.3

How did COc1c(-c2ccccc2)oc2c(CC=C(C)C)c3c(c(OC)c2c1=O)C=CC(C)(C)O3 do in these assays?
A1 inh: 0.7; BJeLR viability: -3.6

How did CN(C(=O)Cc1cccs1)c1ccccc1 do in these assays?
A1 inh: -0.7; BJeLR viability: 1.0

Results for C[C@@H]1CN([C@H](C)CO)C(=O)c2cccc(NC(=O)Nc3ccc(F)cc3)c2O[C@@H]1CN(C)Cc1ccc(Oc2ccccc2)cc1 ?
BJeLR viability: 4.4

How did COc1ccc(S(=O)(=O)Nc2ccc3c(c2)C(=O)N([C@@H](C)CO)C[C@@H](C)[C@@H](CN(C)C(=O)Nc2ccc(F)cc2)O3)cc1 do in these assays?
A1 inh: -0.4; BJeLR viability: -1.8

How did C[C@H]1CN([C@@H](C)CO)C(=O)c2cccc(NC(=O)NC3CCCCC3)c2O[C@@H]1CN(C)C(=O)Nc1ccc(F)cc1 do in these assays?
BJeLR viability: 5.3

How did Cc1c(C#N)c(Sc2n[nH]c(=O)n2C2CCCCC2)nc2ccccc12 do in these assays?
A1 inh: -0.7; BJeLR viability: 2.4

How did COc1cc(C2OC(c3ccc(O)c(OC)c3)C(C)(O)C2C)ccc1O (stereo not given) do in these assays?
A1 inh: 0.1; BJeLR viability: 14

Results for Cc1noc(C)c1S(=O)(=O)Nc1ccc2c(c1)C(=O)N([C@H](C)CO)C[C@@H](C)[C@@H](CN(C)S(=O)(=O)c1c(C)noc1C)O2 ?
A1 inh: -0.1; BJeLR viability: 1.3

How did COc1ccc(-c2coc3cc(O)ccc3c2=O)cc1O do in these assays?
A1 inh: -4.1; BJeLR viability: -1.4

How did O=C(Oc1cc(=O)oc2c1c(=O)n1c3c(cccc23)CC1)c1ccccc1 do in these assays?
A1 inh: 0.2; BJeLR viability: -4.4

What do the screens show for `Cc1ccc(S(=O)(=O)Nc2ccc3c(c2)C(=O)N([C@H](C)CO)C[C@@H](C)[C@H](CN(C)Cc2ccccc2)O3)cc1`?
A1 inh: -0.5; BJeLR viability: 1.8

How did Cc1noc(C)c1S(=O)(=O)Nc1ccc2c(c1)C(=O)N([C@@H](C)CO)C[C@@H](C)[C@H](CN(C)C(=O)Nc1ccccc1)O2 do in these assays?
A1 inh: 0.5; BJeLR viability: 7.4

Results for C[C@H]1CN([C@@H](C)CO)C(=O)c2cccc(NC(=O)Nc3ccc4c(c3)OCO4)c2O[C@H]1CN(C)Cc1ccc2c(c1)OCO2 ?
BJeLR viability: 3.7

Results for Cc1nnc(SCc2cccc(C(=O)c3ccccc3)c2)[nH]c1=O ?
A1 inh: -1.1; BJeLR viability: -2.4

How did CC(=O)NC(Cc1c[nH]c2cc(Cl)ccc12)C(=O)O (stereo not given) do in these assays?
A1 inh: -0.2; BJeLR viability: -4.1

What do the screens show for `CNC(=O)C(C)n1c2ccccc2c2nc(=O)cc(C)n21` (stereo not given)?
A1 inh: 0.3; BJeLR viability: 0.2

Results for CCC(C)OC(=O)C(C)Oc1ccc2c3c(c(=O)oc2c1)CCC3 (stereo not given) ?
A1 inh: -0.3; BJeLR viability: 3.5

How did COc1ccc(S(=O)(=O)N(C)C[C@H]2Oc3ccc(NC(=O)CCN4CCOCC4)cc3C(=O)N([C@@H](C)CO)C[C@@H]2C)cc1 do in these assays?
A1 inh: 0.2; BJeLR viability: 1.7

What do the screens show for `C[C@H](CO)N1C[C@H](C)[C@@H](CN(C)S(=O)(=O)c2ccc(F)cc2)Oc2ccc(NC(=O)Nc3ccccc3)cc2C1=O`?
A1 inh: 0.5; BJeLR viability: -7.1

How did CC(C)C(=O)Nc1nc(OC(=O)N(c2ccccc2)c2ccccc2)c2[nH]cnc2n1 do in these assays?
A1 inh: -0.6; BJeLR viability: -7.0

What do the screens show for `C[C@H](CO)N1C[C@H](C)[C@H](CN(C)S(=O)(=O)c2cccs2)Oc2ccc(NC(=O)CCN3CCOCC3)cc2C1=O`?
A1 inh: -0.6; BJeLR viability: 4.9

What do the screens show for `CCCCS(=O)CSc1nc(-c2ccc(OC)cc2)cc(-c2ccccc2)c1C#N` (stereo not given)?
A1 inh: -1.0; BJeLR viability: -8.8

Results for C[C@H]1CN([C@@H](C)CO)C(=O)c2cc(NC(=O)Cc3cn(C)c4ccccc34)ccc2O[C@H]1CN(C)S(=O)(=O)c1cccs1 ?
A1 inh: 0.3; BJeLR viability: -2.5

How did CC(C)CN(CC(C)C)C(=O)C1c2ccccc2Oc2ccccc21 do in these assays?
BJeLR viability: -0.8

Results for C/C(=C\CCC1(C)C2CCC(C2)C1(C)O)C(=O)O (stereo not given) ?
A1 inh: 0.2; BJeLR viability: 1.8

How did CCC1CCCCN1C(=O)Cn1c(=O)n(Cc2ccccc2)c(=O)c2c3c(sc21)CCC3 (stereo not given) do in these assays?
BJeLR viability: 5.4

Results for C[C@@H]1CN([C@H](C)CO)C(=O)c2cccc(NC(=O)C3CC3)c2O[C@@H]1CN(C)Cc1ccc(C(F)(F)F)cc1 ?
BJeLR viability: -1.2

How did CCn1c(=O)cc(OCC(=O)N2CCCC2)c2ccccc21 do in these assays?
BJeLR viability: 19

Results for CC(=O)O[C@@H]1CC2C(C)(C)CCC[C@]2(C)C2CC[C@]3(C)C(=CC(=O)O[C@H]3c3ccoc3)[C@@]21C (stereo not given in full) ?
A1 inh: -0.8; BJeLR viability: 11

Results for CCOC(=O)C1CCN(C(=S)NC2Cc3ccccc3C2)CC1 ?
A1 inh: 0.3; BJeLR viability: -2.4

How did N#Cc1cc(Oc2ccc(C(=O)c3ccccc3)cc2)nc2ccccc12 do in these assays?
A1 inh: 0.2; BJeLR viability: -1.9

How did Cc1ccc(C2=NNC(=O)CC2)cc1 do in these assays?
A1 inh: -0.6; BJeLR viability: 0.6

Results for CCC(=O)c1cn(CC(=O)NCCOc2ccc(Cl)cc2)c2ccccc12 ?
A1 inh: 0.2; BJeLR viability: -1.8

Results for O=C(CSc1nc2ccccc2s1)n1c2ccccc2c2ccccc21 ?
A1 inh: -1.1; BJeLR viability: -2.3

What do the screens show for `CC(C)NC(=O)Nc1ccc2c(c1)C(=O)N([C@@H](C)CO)C[C@@H](C)[C@H](CN(C)C)O2`?
A1 inh: 0.1; BJeLR viability: 2.6

Results for C[C@@H]1CN([C@H](C)CO)C(=O)c2cccc(NC(=O)Nc3ccccc3)c2O[C@@H]1CN(C)Cc1ccc(-c2ccccc2)cc1 ?
BJeLR viability: -0.7

How did Cc1noc(C)c1NC(=O)N(C)C[C@H]1Oc2c(NC(=O)c3cnccn3)cccc2C(=O)N([C@@H](C)CO)C[C@H]1C do in these assays?
BJeLR viability: 6.5

Results for Cc1ccc2[nH]c3c(c2c1)CCCC3NC1CCCCC1 (stereo not given) ?
A1 inh: 1.4; BJeLR viability: 23

Results for C[C@@H]1CN([C@H](C)CO)C(=O)c2cccc(NC(=O)C3CCCCC3)c2O[C@H]1CN(C)S(=O)(=O)c1ccc(Cl)cc1 ?
BJeLR viability: 0.4

Results for C[C@@H]1O[C@@H](O[C@H]2[C@@H]3C=CO[C@@H](O[C@@H]4O[C@H](CO)[C@@H](O)[C@H](O)[C@H]4O)[C@@H]3[C@@]3(CO)O[C@@H]23)[C@H](O)[C@H](OC(=O)/C=C/c2ccccc2)[C@H]1O ?
A1 inh: 1.1; BJeLR viability: -1.7

How did Cc1cc2ncc(-c3ccnc(SCc4c(Cl)cccc4Cl)n3)c(C)n2n1 do in these assays?
A1 inh: 0.5; BJeLR viability: -0.5

Results for CC1(C)C=C(C(=O)N2CCOCC2)C(C)(C)N1 ?
A1 inh: 0.6; BJeLR viability: -3.9

What do the screens show for `O=C(Cc1ccccc1)Oc1ccc(C2SCCS2)cc1`?
A1 inh: -0.5; BJeLR viability: -2.5

What do the screens show for `CCC1=Nc2cc(C(=O)N3CCc4ccccc4C3)ccc2Sc2ccccc21`?
BJeLR viability: -3.0

How did O=C(Nc1ccc(Cl)cc1)Nc1cccc(-c2cn3cccnc3n2)c1 do in these assays?
BJeLR viability: 6.1

How did O=c1c2ccccc2[nH]c(=S)n1Cc1cccnc1 do in these assays?
BJeLR viability: -0.8

What do the screens show for `CCc1ccc(NC(=O)c2sc3[nH]c(=O)c(C(=O)O)cc3c2N)cc1`?
BJeLR viability: -3.9

What do the screens show for `Cc1ccc(Sc2c(C)[nH]n(C(C)(C)C)c2=O)cc1`?
A1 inh: -0.4; BJeLR viability: 3.5

How did Cc1noc(C)c1NC(=O)Nc1cccc2c1O[C@@H](CN(C)Cc1ccc(C(=O)O)cc1)[C@@H](C)CN([C@@H](C)CO)C2=O do in these assays?
BJeLR viability: -0.6

Results for Nc1cccc(NC(=O)c2cccc(S(=O)(=O)Nc3cccc(N)c3)c2)c1 ?
A1 inh: -0.8; BJeLR viability: 0.3

What do the screens show for `CN1C(=O)CC(c2ccsc2)Sc2ccccc21` (stereo not given)?
A1 inh: 1.2; BJeLR viability: 1.2

Results for CCN1c2ccccc2-c2nc3ccccc3n2C1c1ccccc1 (stereo not given) ?
BJeLR viability: 3.1

How did COc1ccc(Cc2nnc(SCC3CC3)n2-c2ccc(F)cc2)cc1OC do in these assays?
A1 inh: -0.1; BJeLR viability: -2.3

Results for CC(C)NC(=O)N(C)C[C@@H]1Oc2ccc(NS(=O)(=O)c3ccccc3)cc2C(=O)N([C@@H](C)CO)C[C@H]1C ?
A1 inh: -0.7; BJeLR viability: -2.6

What do the screens show for `CC(C)c1ccc(NC(=O)C(NC(=O)Cc2cccs2)c2ccccc2)cc1` (stereo not given)?
BJeLR viability: -1.9

How did C[C@@H]1CN([C@@H](C)CO)C(=O)c2cccc(NS(=O)(=O)c3cccs3)c2O[C@H]1CN(C)Cc1ccc(C(F)(F)F)cc1 do in these assays?
BJeLR viability: -1.4

How did O=C(COc1ccc2ccccc2c1Br)NC1CCCCC1 do in these assays?
A1 inh: -1.0; BJeLR viability: 2.3

How did O=C1CCC(=O)N1c1c(F)c(F)nc(N2CCCCC2)c1F do in these assays?
BJeLR viability: -0.6

Results for COc1ccc(CCNC(=O)c2ccc(/C=C3\Oc4ccccc4NC3=O)cc2)cc1OC ?
A1 inh: 2.5; BJeLR viability: 1.1

What do the screens show for `C[C@H](CO)N1C[C@H](C)[C@H](CN(C)Cc2ccc(C(F)(F)F)cc2)Oc2ccc(NS(C)(=O)=O)cc2C1=O`?
A1 inh: -0.5; BJeLR viability: -4.5

What do the screens show for `COC(=O)c1cc(NC(=O)c2ccco2)cc(C(=O)OC)c1`?
A1 inh: -1.0; BJeLR viability: 3.0

Six compounds drawn at random from the list so far, as already listed:
How did C[C@@H]1CN([C@@H](C)CO)C(=O)c2cccc(NS(=O)(=O)c3cccs3)c2O[C@H]1CN(C)Cc1ccc(C(F)(F)F)cc1 do in these assays?
BJeLR viability: -1.4

What do the screens show for `CN1C(=O)CC(c2ccsc2)Sc2ccccc21` (stereo not given)?
A1 inh: 1.2; BJeLR viability: 1.2

What do the screens show for `Cc1ccc(Sc2c(C)[nH]n(C(C)(C)C)c2=O)cc1`?
A1 inh: -0.4; BJeLR viability: 3.5

How did O=C(COc1ccc2ccccc2c1Br)NC1CCCCC1 do in these assays?
A1 inh: -1.0; BJeLR viability: 2.3

Results for Nc1cccc(NC(=O)c2cccc(S(=O)(=O)Nc3cccc(N)c3)c2)c1 ?
A1 inh: -0.8; BJeLR viability: 0.3

What do the screens show for `CCc1ccc(NC(=O)c2sc3[nH]c(=O)c(C(=O)O)cc3c2N)cc1`?
BJeLR viability: -3.9

Some of the compounds tested; count on the stated rates, not on these rows.
